YopH PTP inh: blocks Yersinia enterocolitica YopH tyrosine phosphatase | fluorescence Ex485/Em525 | inhibition, %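 (about 10 µM by stock and volumes)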 | 140,000 compounds, 0.16% hits;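 active = inhibition of 50% or more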;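 note: controls were vehicle for no effect and minimum signal wells for full effect; inactives centre near -20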
Arbovirus inh: antivirals against arbovirus infection. AID 1251. arbovirus infection cell-based antiviral screen. 200,000 compounds, 0.37% hits. inhibition, % at 10 µM;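 active = inhibition from about 30%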;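 note: bluetongue infection of BSR cells; cell survival read as ATP light after 72 h; 0% = infected wells without compound and 100% = uninfected wells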
Mtb betalactam: beta-lactam sensitization of Mtb H37Rv; M. tuberculosis H37Rv growth with meropenem, percent inhibition; hits of this screen are not shown here; inhibition, % at 25 µM; 330,000 compounds, 0.27% hits;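 active = about 74% or more and at least 40 points above the plate without the antibiotic, then above 30% in a dose series; inconclusive = first-round hits that could not be retested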;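 note: growth measured after seven days incubation then overnight dye step; 0% = bacteria only wells and 100% = bacteria with antibiotic; twin plates without the antibiotic show which effects depend on it; some results filed as inactive read as strong as hits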
Mtb growth: M. tuberculosis H37Rv growth inhibitors, H37Rv strain (AID 1626) | inhibition, % at 10 µM; hits with a dose series show IC50 in µM | M. tuberculosis H37Rv growth inhibition; higher % means a stronger effect | 220,000 compounds, 0.95% hits;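 active = confirmed in a dose series; inconclusive = inhibition above 80% but not taken into the dose series; inactive = below 80% or under 30% at every dose of the series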;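 note: bacteria incubated seven days before Alamar blue readout; 0% = bacteria only wells and 100% = bacteria with antibiotic wells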
RecA splice inh: inhibitors of M. tuberculosis RecA intein splicing; inhibition, %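 (about 9 µM by stock and volumes)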; AID 2221; 290,000 compounds, 0.75% hits; cell-free RecA intein splicing, fluorescence; P9WHJ3; in the data active = inhibition above about 30%; inconclusive = no clear call, values can overlap the other calls;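 note: 0% = vehicle wells and 100% = reference inhibitor control wells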
Target sequence (P9WHJ3 whole entry, looked up, canonical isoform): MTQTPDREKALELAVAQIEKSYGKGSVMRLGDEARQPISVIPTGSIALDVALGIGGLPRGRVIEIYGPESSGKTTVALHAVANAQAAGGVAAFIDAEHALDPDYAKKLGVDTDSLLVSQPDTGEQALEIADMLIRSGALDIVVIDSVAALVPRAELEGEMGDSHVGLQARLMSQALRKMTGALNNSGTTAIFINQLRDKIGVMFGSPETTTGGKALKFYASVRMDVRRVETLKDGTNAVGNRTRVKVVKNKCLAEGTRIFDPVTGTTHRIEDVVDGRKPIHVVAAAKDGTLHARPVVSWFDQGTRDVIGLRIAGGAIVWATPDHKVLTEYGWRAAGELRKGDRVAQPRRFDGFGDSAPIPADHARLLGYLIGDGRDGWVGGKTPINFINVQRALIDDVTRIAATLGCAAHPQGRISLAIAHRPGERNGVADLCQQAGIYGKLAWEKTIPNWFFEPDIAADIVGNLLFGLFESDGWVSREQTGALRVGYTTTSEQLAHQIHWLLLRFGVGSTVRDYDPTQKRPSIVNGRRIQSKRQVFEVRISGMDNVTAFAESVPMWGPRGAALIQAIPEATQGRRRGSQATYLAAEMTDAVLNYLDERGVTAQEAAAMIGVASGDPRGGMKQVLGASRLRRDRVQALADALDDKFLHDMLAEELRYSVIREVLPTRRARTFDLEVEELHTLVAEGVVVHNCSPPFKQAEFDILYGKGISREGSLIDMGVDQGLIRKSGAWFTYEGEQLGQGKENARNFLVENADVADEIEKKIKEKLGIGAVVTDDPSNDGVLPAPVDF
Arbovirus inh repeat: also measured in Arbovirus inh; calls as there; inhibition, %; measured here: 10K subset replicate screen; many hits read low in the repeat;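 first of two repeat runs on a subset; 0% = infected and 100% = uninfected wells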
* hit, by the source's call; ? = inconclusive; . = not tested or not shown. Not all compounds are listed, so the mix of outcomes need not match the whole.

SMILES	YopH PTP inh	Arbovirus inh	Mtb betalactam	Mtb growth	RecA splice inh	others
COC(=O)CCC(=O)N1CCC(CCC(=O)NCc2ccc(F)cc2)CC1	.	.	2	.	0.4
Cc1noc(C)c1C(=O)OCC(=O)c1c(N)n(CC(C)C)c(=O)n(C)c1=O	-33	4	-8	-2%	-4.1
O=C(O)c1ccc(NS(=O)(=O)c2ccc3c(c2)OCCO3)cc1	-59	3	12	-10%	-1.5	Arbovirus inh repeat=7
Cc1cc(C)c(S(=O)(=O)NCc2cccs2)cc1C	.	.	12	.	2.5
Oc1ccc(-c2nnc(SCC3CCCCC3)o2)cc1	-3	-1	14	3%	-0.9
CCSc1ccc(C(=O)Nc2ccc(Br)cn2)cc1[N+](=O)[O-]	.	-21	1	-1%	2.6
O=C1c2ccccc2C(=O)N1OCc1ccc(Cl)cc1	-18	3	-13	-16%	1.5
Cc1ccc(SCc2cn3c(C)cc(C)nc3n2)cc1	.	.	-5	1%	12
Cc1ccc(-n2nnc3c(=O)n(CC(=O)OCc4ccccc4)cnc32)cc1	1	5	-2	-3%	-1.5	Arbovirus inh repeat=-2
CC(C)(C)C(=O)Nc1cc(NC(=O)C(C)(C)C)cc(C(=O)NNC(=O)c2ccncc2)c1	.	.	0	.	-3.2
COc1cc(NC(=O)CCC2CCCC2)cc(-n2cnnn2)c1	4	2	4	-4%	4.6
COC(=O)c1ccc(C23CC4(C2)[C@H](CN(Cc2cccnc2)[C@@H]4c2ccccc2)C3c2ccc(Cl)nc2)cc1 (stereo partly specified)	.	.	99	66%	25
O=C(COC(=O)c1cnc(Cl)c(Cl)c1)NCc1cccs1	.	0	0	1%	-1.8
O=C(c1ccc(S(=O)(=O)N2CCCCC2)cc1)N1CCCC(C(F)(F)F)C1 (stereo unspecified)	.	.	-3	.	-2.3
Cn1c(=O)c2c(nc(CN3CCN(Cc4ccccc4)CC3)n2Cc2ccc(F)cc2)n(C)c1=O	-22	-25	-7	-1%	5.4
COCC1CCN(C(=O)C2CCC(=O)N(Cc3ccc(Cl)cc3)C2)CC1 (stereo unspecified)	.	.	-10	.	-2.1
O=C(c1ccco1)N1CCN(c2ccccc2F)CC1	-7	4	-4	4%	2.1
O=C(O)C1CCN(C(=O)c2ccco2)CC1	.	1	-9	5%	4.1
COc1ccccc1OCC(=O)Nc1ccc(Cl)cc1C(=O)c1ccccc1	-43	-8	0	6%	0.1
OC(CNCC(c1ccco1)N1CCCCC1)c1ccccc1 (stereo unspecified)	-24	9	22	-7%	-0.7
Cc1ccc(C)c(C(=O)CN2C(=O)NC3(CCCCCCC3)C2=O)c1	.	1	3	6%	4.4
CN(C)S(=O)(=O)c1cccc(N=C2SCCN2Cc2ccccc2)c1	.	.	-5	4%	1.2
COc1cc2[nH]c(=S)nc(NCCC(C)C)c2cc1OC	.	3	2	0%	0.4
Cc1ccc(N2C(=O)N(CC(=O)NC(N)=O)C(=O)C2C)cc1 (stereo unspecified)	.	3	1	3%	.
COc1ccc(S(=O)(=O)Nc2cccc(-c3ccc4nncn4n3)c2)cc1	.	.	5	.	-2.0
COc1cc(O)c(CC=C(C)C)c(O)c1C(=O)CCc1ccc(O)cc1	.	.	2	5%	12
CC(C)CC(NC(=O)C(NC(=O)C1OC2OC(C)(C)OC2C2OC(C)(C)OC12)C(C)C)C(=O)O (stereo unspecified)	.	2	3	3%	-2.5
C=CCNC(=S)N1CCN(Cc2ccccc2)CC1	.	6	-9	-8%	-1.9
CCc1ccccc1NC(=O)c1ccc(CN2CCC(Cc3ccccc3)CC2)cc1	-31	-28	47	-5%	0.7
Cc1c(C(=O)C(=O)NCC2CCCO2)c2ccccc2n1C (stereo unspecified)	.	16	-5	6%	-1.9
Cc1ccccc1C(=O)Nc1sc(C)c(C)c1C(=O)c1ccccc1	-31	28	22	4%	4.9
Cc1sc(NC(=O)Cc2ccc3c(c2)OCO3)nc1-c1ccc2c(c1)CCN2C(=O)c1ccc(F)cc1	-2	-4	77	10%	11
Cn1c(NNC(=O)c2c(F)cccc2F)cc(=O)n(C)c1=O	.	.	1	0%	2.0
CC1=[N+](C)N(c2ccccc2)C(=O)C1N=Cc1ccc(Cl)cc1 (stereo unspecified)	-25	-7	1	3%	-6.1
Fc1ccccc1OCCCCCN1CCCC1	-14	14	2	-1%	3.6
O=C(O)c1cc(N2C(=O)CCC2=O)ccc1Cl	.	.	82	.	0.6

Arranged by molecular weight (falling): part of the list above
SMILES	YopH PTP inh	Arbovirus inh	Mtb betalactam	Mtb growth	RecA splice inh	others
COC(=O)c1ccc(C23CC4(C2)[C@H](CN(Cc2cccnc2)[C@@H]4c2ccccc2)C3c2ccc(Cl)nc2)cc1 (stereo partly specified)	.	.	99	66%	25
O=C(c1ccc(S(=O)(=O)N2CCCCC2)cc1)N1CCCC(C(F)(F)F)C1 (stereo unspecified)	.	.	-3	.	-2.3
CCSc1ccc(C(=O)Nc2ccc(Br)cn2)cc1[N+](=O)[O-]	.	-21	1	-1%	2.6
COCC1CCN(C(=O)C2CCC(=O)N(Cc3ccc(Cl)cc3)C2)CC1 (stereo unspecified)	.	.	-10	.	-2.1
COc1cc(O)c(CC=C(C)C)c(O)c1C(=O)CCc1ccc(O)cc1	.	.	2	5%	12
Cc1ccccc1C(=O)Nc1sc(C)c(C)c1C(=O)c1ccccc1	-31	28	22	4%	4.9
O=C(COC(=O)c1cnc(Cl)c(Cl)c1)NCc1cccs1	.	0	0	1%	-1.8
Cc1ccc(C)c(C(=O)CN2C(=O)NC3(CCCCCCC3)C2=O)c1	.	1	3	6%	4.4
O=C(O)c1ccc(NS(=O)(=O)c2ccc3c(c2)OCCO3)cc1	-59	3	12	-10%	-1.5	Arbovirus inh repeat=7
OC(CNCC(c1ccco1)N1CCCCC1)c1ccccc1 (stereo unspecified)	-24	9	22	-7%	-0.7
Cc1cc(C)c(S(=O)(=O)NCc2cccs2)cc1C	.	.	12	.	2.5
Oc1ccc(-c2nnc(SCC3CCCCC3)o2)cc1	-3	-1	14	3%	-0.9
Cc1ccc(SCc2cn3c(C)cc(C)nc3n2)cc1	.	.	-5	1%	12
C=CCNC(=S)N1CCN(Cc2ccccc2)CC1	.	6	-9	-8%	-1.9
O=C(c1ccco1)N1CCN(c2ccccc2F)CC1	-7	4	-4	4%	2.1

(cont.)
SMILES	YopH PTP inh	Arbovirus inh	Mtb betalactam	Mtb growth	RecA splice inh	others
CC(Oc1ccc(Cl)cc1Cl)C(=O)Nn1cnnc1 (stereo unspecified)	-14	6	-8	-9%	.
COCCNS(=O)(=O)c1cc(C(=O)O)ccc1OC	.	7	-1	-10%	-0.1
O=C(CCSc1nnc2scc(-c3ccccc3)n12)NCc1ccc2c(c1)OCO2	4	-4	-4	-1%	-4.0
Cc1ccc(OCC(=O)NNC(=O)C2CC(=O)N(c3ccc4c(c3)OCCO4)C2)cc1 (stereo unspecified)	.	.	-3	.	2.3
CCn1c(=O)n(CC)c2cc(N3CCCC3)c(NC(=O)c3ccccc3Br)cc21	.	.	26	.	-0.9
Cc1oc(-c2ccc(Cl)cc2)nc1CN1CCC(C(=O)NCc2ccco2)CC1	-33	7	0	0%	1.9
CCC(=O)Nc1ccc(C(=O)Nc2ccc3c(c2)OCO3)cc1	-22	-5	-2	0%	-6.7
COc1ccc(C(C(=O)NCC2CCCO2)N(Cc2ccccc2)C(=O)CNC(=O)c2ccco2)cc1OC (stereo unspecified)	.	.	-4	.	-1.9
Cc1sc2nc(CSc3ccc([N+](=O)[O-])cc3)[nH]c(=O)c2c1C	.	-16	2	-2%	-1.6
Cc1ccccc1C(=O)Nc1nnc(S(=O)(=O)N2CCCCC2)s1	.	.	-11	.	0.8
COC(=O)[C@H](Cc1ccccc1)NC(=O)N1CCN(Cc2ccccc2)CC1	-48	-2	0	5%	-1.7
CCC(=O)NC(=S)Nc1ccc(NC(=O)c2cccnc2)cc1	.	.	44	-14%	0.2
COc1ccc(C2C(C(C)=O)=C(O)C(=O)N2c2nccs2)cc1OC (stereo unspecified)	-25	3	-10	0%	-6.0
COc1ccc(C(=O)Nc2ccccc2C(=O)N2CCCCC2C)cc1 (stereo unspecified)	.	-1	-9	-11%	0.7
COCCC(=O)N1CCCC(CNS(=O)(=O)c2ccc(OC)cc2)C1 (stereo unspecified)	.	-1	-2	-2%	-0.6
COc1cc(OC)c(OC)cc1CN1CCc2ccccc2C1	-20	15	3	-15%	-3.4
COc1ccc(N2CCN(CC(=O)c3ccc(O)cc3O)CC2)cc1	.	.	-1	.	-3.0
O=c1[nH]c2ccccc2nc1/C=C(\O)C1CC1	-33	-5	3	4%	-1.5
O=C(O)c1c2c(nc3ccc(S(=O)(=O)N4CCC(C(=O)NCc5ccccc5Cl)CC4)cc13)CCCC2	.	.	-7	.	-1.4
COCCNC(=O)C1c2ccccc2C(=O)N(CCOC)C1c1ccc(F)cc1 (stereo unspecified)	-39	4	1	-6%	-0.3	Arbovirus inh repeat=6
C=Cc1ccc(Cn2c(=O)n(CCCOC)c(=O)c3sccc32)cc1	.	.	-7	.	-0.1
O=C(CCc1nnc(C2CCCCC2)o1)N1CCC(Oc2cccnc2)CC1	.	11	-6	-9%	-1.2
COc1ccc(CNC(=O)Cc2nn(C)c(=O)c3ccccc23)cc1	-2	7	-12	-7%	-2.1
COc1cc2c(cc1OC)/C(=C/C(=O)c1ccc(OC)c([N+](=O)[O-])c1)NCC2	.	.	-3	.	0.1

Copied from the results shown, 2 compounds:
SMILES	YopH PTP inh	Arbovirus inh	Mtb betalactam	Mtb growth	RecA splice inh	others
COc1ccc(CNC(=O)Cc2nn(C)c(=O)c3ccccc23)cc1	-2	7	-12	-7%	-2.1
COc1cc2c(cc1OC)/C(=C/C(=O)c1ccc(OC)c([N+](=O)[O-])c1)NCC2	.	.	-3	.	0.1

Going on with the list.
SMILES	YopH PTP inh	Arbovirus inh	Mtb betalactam	Mtb growth	RecA splice inh	others
O=c1cc(CSc2ccccn2)nc(N2CCN(c3ccccc3)CC2)[nH]1	-31	-2	0	-10%	-2.0
CCCC(C(=O)NCCC(C)C)N(Cc1ccc(F)cc1)C(=O)c1snc(C(N)=O)c1N (stereo unspecified)	.	.	4	.	2.2
CN1CCN(C(=O)/C(C#N)=C/c2ccc(F)cc2)CC1	.	12	5	0%	0.2
COc1cc(OC)cc(C(=O)N2c3ccc(F)cc3CCC2C)c1 (stereo unspecified)	-21	-1	0	3%	4.8
COc1ccc(S(=O)(=O)NCc2cccnc2)cc1NC(=O)c1ccc(C)cc1	.	.	-9	.	9.6
Cc1nc2ccc(NC(=O)C3COc4ccccc4O3)cc2s1 (stereo unspecified)	.	.	39	.	0.3
C[C@@H](CN=[N+]=[N-])CN1CC[C@H](C(C)(C)C)CCC1=O	.	.	10	.	2.5
COCCCNC(=O)Cc1c(C)c2c(cc(C)c3c(C(C)(C)C)coc32)oc1=O	.	.	86	.	7.3
COc1cc(/C=N/OCC(=O)Nc2cc(C)cc(C)c2)ccc1OCc1ccc(Cl)cc1	-12	2	89	?	1.0
CNC(=O)CN1C(=O)c2cccc3cccc1c23	-28	-1	-4	4%	-21
COc1cccc(/C=N/NC(N)=S)c1OCc1ccccc1Cl	-22	-6	3	6%	1.4
Cc1ccc(C)c(NC(=O)CSc2nnc(-c3ccco3)o2)c1	-30	1	2	-1%	0.5
COc1ccc(CN2C(=O)c3cccnc3C2Nc2ccc(OC)c(Cl)c2)cc1 (stereo unspecified)	-36	9	28	23%	13
CCCOc1ccc2c(=O)c(N3C(=O)c4ccccc4C3=O)c(C)oc2c1	-29	1	5	8%	-1.1
COc1ccc(S(=O)(=O)NC2CC2)cc1C(=O)N1CCOCC1	.	4	-8	4%	-11
COc1cc(Br)c(CC(=O)O)cc1OC	.	17	?	-9%	-3.2	Arbovirus inh repeat=1
O=C(CSc1nnnn1-c1ccccc1)N1N=CCC1c1ccccc1 (stereo unspecified)	-22	-9	-9	-4%	-0.5
COC(=O)C1=C(C)N(C)C(=O)NC1c1ccc(C)cc1 (stereo unspecified)	-43	6	2	-3%	0.9	Arbovirus inh repeat=9
CCOc1ccc(/C=C2\SC(=S)N(CCC(=O)Nc3ccccc3C(=O)O)C2=O)cc1	.	.	10	.	36*
COc1ccccc1C(=O)Nc1ccccc1SC	-20	0	73	11%	3.6
COc1cc(/C=C/C(=O)O)cc(S(=O)(=O)N2CCCc3ccccc32)c1OC	.	.	2	6%	-0.6
CCOc1ccc(-n2nc3cc(C)c(N)cc3n2)cc1	.	.	2	.	-3.4
NS(=O)(=O)c1cccc(NC(=O)CN2CCN(Cc3ccc4c(c3)OCO4)CC2)c1	-33	2	5	3%	-0.6
CC(Oc1ccccc1)c1ccnn1S(=O)(=O)c1ccccc1 (stereo unspecified)	-30	5	2	-8%	.
CCOc1ccc(CCNC(=O)c2ccc(F)c(S(=O)(=O)N3CCOCC3)c2)cc1OCC	.	.	-9	.	0.8
CCOC(=O)N1CCC(Nc2nc3ccccc3n3nnnc23)CC1	-32	-5	-14	.	-1.7

Screening data from PubChem BioAssay.
